Mtb MenB inh: M. tuberculosis MenB inhibitors, primary screen, biochemical, absorbance. MenB enzyme assay, absorbance read-out; some hits fall short of the stated cut. inhibition, %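 (about 12 µg/mL by stock and volumes)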. actives 0.43% (n = 100,000);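 active means mean of two replicates above 30%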;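 further: 0% = no compound and 100% = wells with inactive enzyme; the first replicate is given; strong numbers were not always called active; inactives centre near -10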
Target sequence (P9WNP5 whole entry, looked up): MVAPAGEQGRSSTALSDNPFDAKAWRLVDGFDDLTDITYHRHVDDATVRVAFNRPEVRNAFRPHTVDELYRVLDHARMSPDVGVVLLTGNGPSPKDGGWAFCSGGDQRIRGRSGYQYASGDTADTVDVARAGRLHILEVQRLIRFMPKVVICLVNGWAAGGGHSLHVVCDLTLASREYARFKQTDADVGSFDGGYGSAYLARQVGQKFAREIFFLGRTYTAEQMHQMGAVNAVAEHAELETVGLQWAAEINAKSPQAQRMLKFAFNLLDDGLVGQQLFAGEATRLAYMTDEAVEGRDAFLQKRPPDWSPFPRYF
Polio RdRp inh: poliovirus RdRp elongation inhibitors, primary screen, biochemical, fluorescence polarization, total intensity; Genome polyprotein (Poliovirus type 1 (strain Mahoney)), P03300; poliovirus polymerase elongation; hits give low values; AID 588519, 2011; % elongation, % (compound at 16.7 µg/mL); actives 0.66% (n = 150,000); in the data active means % elongation below about 90%; further: some results filed as inactive read as strong as hits
Target sequence (P03300 1749-2209 limits assumed): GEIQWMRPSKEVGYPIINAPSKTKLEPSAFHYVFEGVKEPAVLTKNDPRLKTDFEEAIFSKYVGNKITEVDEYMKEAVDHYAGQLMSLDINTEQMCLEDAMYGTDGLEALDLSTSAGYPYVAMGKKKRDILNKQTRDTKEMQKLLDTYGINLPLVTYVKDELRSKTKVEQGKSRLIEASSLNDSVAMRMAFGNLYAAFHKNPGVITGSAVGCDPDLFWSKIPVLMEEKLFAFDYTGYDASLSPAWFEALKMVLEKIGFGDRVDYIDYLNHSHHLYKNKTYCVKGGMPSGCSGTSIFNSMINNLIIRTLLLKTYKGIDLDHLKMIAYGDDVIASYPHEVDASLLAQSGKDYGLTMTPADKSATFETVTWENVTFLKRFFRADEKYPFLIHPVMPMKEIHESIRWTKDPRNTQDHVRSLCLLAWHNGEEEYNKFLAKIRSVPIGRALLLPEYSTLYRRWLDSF
Mtb MbtI inh: MbtI salicylate synthase inhibitors, primary screen, biochemical, fluorescence intensity; purified MbtI enzyme, fluorescence intensity read-out; inhibition, %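 (about 17 µg/mL by stock and volumes)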; P9WFX0; AID 493033, 2011; actives 0.89% (n = 100,000);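 active means above 50% in both replicates, above 80% if mildly self-fluorescent; inactive means the rest, strongly fluorescent compounds included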;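 further: 0% = mean of negative and 100% = mean of positive controls; one replicate is shown; some compounds called inactive have numbers as strong as hits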
Polio RdRp inh intensity: further read-out of Polio RdRp inh, marked with its call; % elongation; measured here: total intensity read-out; formula for this scale not given here;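 total fluorescence in place of polarization; lower means less elongation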
Active calls of the source: *; . = not tested or not shown; & = joins results of further samples.

Molecule | Mtb MenB inh | Polio RdRp inh | Polio RdRp inh intensity | Mtb MbtI inh
CC(=O)Nc1cccc(N2C(=O)CCC2=O)c1 | 5 | 100 | 104 | -6
COC(=O)c1cc(C(=O)OC)c2ccccc2n1 | -64 | 103 | 101 | 147
COc1ccccc1OCCNc1ncnc2sccc12 | -5 | 104 | 114 | 4
COc1ccc(S(=O)(=O)Nc2c(O)c3ccccc3oc2=O)cc1OC | -5 | 101 | 103 | 5
CCCc1c(O)nc(SCCC(=O)O)[nH]c1=O | 9 | 99 | 102 | 7
CCCCN1C(=O)S/C(=C/c2ccc(OC)cc2)C1=O | 13 | 101 | 101 | -1
CC(C)(C)NC(=O)N1CCn2cccc2C1c1cccnc1 (stereo unspecified) | -6 | 107 | 104 | -4
CC(C)(C)c1ccc(OCCCSC#N)cc1 | -21 | 100 | 104 | 0
C=CCN1CN(CC=C)CN(CC=C)C1 | -50 | 105 | 107 | -9
C=CCOc1ccc(/C=C2\C(=O)N(c3ccc(Cl)c(C(=O)O)c3)N=C2C)cc1OC | 14 | 114 | 114 | .
O=C(Nc1ccc(C(=O)OC2CCCCC2)cc1)c1ccncc1 | 8 | 101 | 100 | .
Cc1cccc(Nc2nc3nonc3nc2N/N=C\c2cccs2)c1C | -85 | 100 | 111 | -20
NC(=S)Cc1ccc(-c2csnn2)cc1 | 9 | 103 | 102 | 6
O=C1/C(=C/c2cccnc2)c2ccccc2N1c1ccccc1 | -23 | 96 | 90 | 21
N/C(Cc1cccc2ccccc12)=N\OC(=O)c1ccc(Br)o1 | -40 | 93 | 127 | -1
CNCCC(Oc1ccc(C(F)(F)F)cc1)c1ccccc1 (stereo unspecified) | -7&-3 | 101&100 | 101&103 | 1&-6
CCn1c(CC(=O)Nc2ccccc2)n[nH]c1=S | 14 | 101 | 104 | 18
Cc1ccc(NC(=O)/C(C#N)=N/Nc2ccc(S(=O)(=O)Nc3ncccn3)cc2)cc1C | -96 | 109 | 109 | -4
Cc1nnc(SCC(=O)c2ccc(F)cc2)o1 | -14 | 98 | 98 | 3
O=C(C/C(=C1/CCc2ccccc2C1=O)c1ccccc1)c1ccccc1 | -16 | 102 | 105 | 2
CCOc1cc(N2CCOCC2)c(OCC)cc1NC(=O)CSc1ccccc1C(=O)O | 1 | 104 | 106 | 0
CCOc1ccc(-n2ccc3nc(C)c(C(=O)O)cc3c2=O)cc1 | -20 | 101 | 105 | -1
COc1ccc(-c2noc(COC(=O)c3cccc(OC(F)F)c3)n2)c(OC)c1 | -25 | 103 | 100 | -13
N#CNC1=NCN(CCCN2CCOCC2)CN1 | 8 | 101 | 99 | -10
CC1Cc2ccccc2N1C(=O)CN1CCN(c2ccc(C(F)(F)F)cn2)CC1 (stereo unspecified) | -36 | 105 | 109 | -8
COC(=O)c1c(-c2snnc2C)n[nH]c1C | -5 | 103 | 102 | 2
O=C(NCc1c(-n2cccc2)sc2c1CCCC2)NC12CC3CC(CC(C3)C1)C2 | -12 | 101 | 102 | -7
CCc1ccc(N2Cc3ccccc3C2)cc1 | -27 | 99 | 106 | 15
CCn1c(=O)c(C)nc2cc(C(=O)O)ccc21 | -10 | 102 | 100 | 105
O=C(CCc1nnc2ccc(N3CCCCC3)nn12)NCCc1c[nH]c2ccccc12 | -14 | 100 | 104 | -1
Nc1c(S(=O)(=O)Cc2ccccc2)sc2nc3c(cc12)CCCC3 | -52 | 102 | 100 | 90
COc1ccc2[nH]c3c(=O)n(CCc4ccc(Cl)cc4)cnc3c2c1 | -2 | 105 | 106 | -14
O=C(Nc1ccc2ccccc2c1)c1ccccc1O | . | 102 | 104 | -106
O=C1c2ccccc2C(=O)N1c1ccc(OC(F)(F)F)cc1 | 14 | 102 | 97 | 13
COc1ccc(CCNC(=O)CSc2c3c(nc4cc(Cl)ccc24)CCCC3)c(OC)c1 | -17 | 99 | 105 | 10
CC1CCCN(C(=O)C2CCN(CC3CCCCC3)CC2)C1 (stereo unspecified) | -9 | 103 | 108 | .
Cc1ccc(OCc2nc(C#N)c(NCCCN3CCOCC3)o2)cc1 | -12 | 100 | 101 | 5
CC(C)OC(=O)c1ccc(NC(=O)c2ccc(Cn3cc(Cl)cn3)cc2)cc1 | -21 | 100 | 101 | 14
CCn1c(N)c(C(=O)NCC2CCCO2)sc1=S (stereo unspecified) | -19 | 96 | 100 | 82*
CC1=NC(C(F)(F)F)(C(F)(F)F)C2=C(CC(C)(C)CC2=O)N1Cc1ccco1 | -12 | 101 | 100 | 13
O=C(N=c1scc(-c2ccccc2)n1-c1ccccc1)c1ccccc1 | . | 100 | 103 | 22
COC(=O)CSC(=S)N1CCCC(C)C1 (stereo unspecified) | -55 | 102 | 112 | 2
CCCn1c(N)c(C(=O)CSc2nc3cc(Cl)ccc3c(=O)n2C2CCCC2)c(=O)[nH]c1=O | -9 | 103 | 100 | -5
CC1CCCN(C(=O)COC(=O)c2ccc(Cl)nc2)C1 (stereo unspecified) | . | 100 | 95 | -4
CN(C)S(=O)(=O)c1cccc2nsnc12 | 1&0 | 99&100 | 92&111 | 11
CC1CCCC(C)N1CC(O)COc1ccc(Cl)cc1 (stereo unspecified) | 9 | 104 | 100 | -10
CC1CC(C)CN(c2cnn(-c3ccccc3)c(=O)c2Cl)C1 (stereo unspecified) | -10 | 104 | 110 | 3
CC(=O)Nc1ccc(CN2CCCCC2)cc1 | -5 | 100 | 104 | -2
COc1cc(/C=C/C(=O)OC2CCCCC2=O)cc(OC)c1OC (stereo unspecified) | -26 | 105 | 107 | -3
N#CCc1nc(-c2ccc(Cl)c(Cl)c2)cs1 | 4 | 131 | 141 | -4
CC1=CC(=C(C#N)C#N)C=C(C)N1c1cccc(F)c1 | -23 | 104 | 122 | 18
N#Cc1ccc(CSc2nnc(CNc3ccccc3)o2)cc1 | -10 | 102 | 101 | -4
COc1ccc(C(=O)CSc2nnc(CCC(=O)O)c(=O)[nH]2)cc1OC | -11 | 99 | 100 | 7
CCn1cc(C(=O)O)c(=O)c2cc(F)c(N3CCN(C(=O)c4ccc(F)cc4)CC3)cc21 | -19 | 102 | 95 | -94
O=C(c1ccc(CSc2ncn[nH]2)cc1)N1CCN(S(=O)(=O)c2ccc3c(c2)CCC3)CC1 | -30 | 98 | 109 | -6
Cc1ccc(OCC(=O)NC2CCS(=O)(=O)C2)cc1 (stereo unspecified) | 1 | 102 | 104 | 12
O=C1C2C3C=CC(C3)C2C(=O)N1CNc1ccc(O)cc1 (stereo unspecified) | 20 | 95 | 94 | 100
Cc1cc(C)c2c(-n3cccc3)nn(CCCC(=O)NC3CCCCCC3)c2n1 | 9 | 97 | 102 | -206
COc1ccc(-c2noc(N3CCCC(C(=O)NCCCN4CCC(C)CC4)C3)n2)cc1 (stereo unspecified) | -9 | 103 | 104 | -3
CCOC(=O)C(C)Sc1nc(N)nc(SC)c1C#N (stereo unspecified) | -25 | 106 | 97 | .

Carrying on.
Second line of a record: Mtb MenB inh	Polio RdRp inh	Polio RdRp inh intensity	Mtb MbtI inh
COc1ccc(N2CC(=O)N(/N=C/c3ccccc3C(=O)O)C2=S)cc1
→ -26	100	94	.
CC1CN(CCc2ccccc2)c2nc3c(c(=O)n(CC(N)=O)c(=O)n3C)n2C1 (stereo unspecified)
→ -4	98	97	8
N/C(=N\OCC(=O)N1CCOCC1)c1nonc1N
→ -16	101	102	-13
CN1/C(=C\C(=O)NC2CCCCC2)C(C)(C)c2ccccc21
→ .	103	106	-9
Cc1nn(-c2ccccc2)c(N2CCCCC2)c1/C=N/NC(=O)c1ccncc1
→ 2	101	107	-10
C[N+](C)(C)CC1CCCC1O (stereo unspecified)
→ 5	99	107	.
CC(=O)Nc1ccc(-c2nc3cc(Cl)ccc3o2)cc1
→ -54	104	106	89
CCc1cc(C(=O)c2ccc(OC)cc2)c(NC(=O)CN2CCN(C)CC2)s1
→ -4	103	100	2
CN(C)C(=O)CSc1nc2scc(-c3ccccc3)c2c(=O)[nH]1
→ -23	137	145	-2
Cc1cc(C)c2ccc(O)cc2n1
→ -192	94	115	-15
COC(=O)C1=C(C)NC2=C(C(=O)CCC2)C1c1c(F)cccc1F (stereo unspecified)
→ .	101	103	-29
C=C1C(C(=O)NCc2ccco2)C1C(=O)NCc1ccco1 (stereo unspecified)
→ .	97	94	-7
COc1cc(C(=O)N/N=C/c2ccc(OC(=O)N3CCOCC3)cc2)cc(OC)c1OC
→ -8	100	102	23
O/N=C/c1cn(CC(O)Cn2cnc3ccccc32)c2ccccc12 (stereo unspecified)
→ -3	.	.	0
Nc1sc2ccccc2[n+]1C(=O)OCc1ccccc1
→ 8	101	103	.

Continued; it opens with the 6 that closed the last part.
Second line of a record: Mtb MenB inh	Polio RdRp inh	Polio RdRp inh intensity	Mtb MbtI inh
Cc1cc(C)c2ccc(O)cc2n1
→ -192	94	115	-15
COC(=O)C1=C(C)NC2=C(C(=O)CCC2)C1c1c(F)cccc1F (stereo unspecified)
→ .	101	103	-29
C=C1C(C(=O)NCc2ccco2)C1C(=O)NCc1ccco1 (stereo unspecified)
→ .	97	94	-7
COc1cc(C(=O)N/N=C/c2ccc(OC(=O)N3CCOCC3)cc2)cc(OC)c1OC
→ -8	100	102	23
O/N=C/c1cn(CC(O)Cn2cnc3ccccc32)c2ccccc12 (stereo unspecified)
→ -3	.	.	0
Nc1sc2ccccc2[n+]1C(=O)OCc1ccccc1
→ 8	101	103	.
CS(=O)(=O)N1Cc2ccccc2CC1C(=O)OCC(=O)N1CC(=O)Nc2ccccc21 (stereo unspecified)
→ -34	102	99	-12
COc1ccc(Cl)cc1NC(=O)Cn1nc(C(F)(F)F)cc1C
→ 8	101	103	-3
c1ccc(CSc2nn3cc(-c4ccccc4)nc3s2)cc1
→ -12	99	104	1
CCC(c1nnc(SCC(C)C#N)n1Cc1ccccc1)N(C)C (stereo unspecified)
→ -16	104	101	29
O=C(COn1nnc2ccc(Cl)cc21)Nc1ccccc1
→ 1	.	.	-9
Cc1ccccc1C(=O)N(CC#N)CC#N
→ -12	96	101	.
COc1ccc(C(=O)O)cc1S(=O)(=O)NC(C)(C)C
→ 1	102	107	-17
c1cncc(-c2nc(NCc3ccncc3)c3ccccc3n2)c1
→ 9	.	.	18
CC(C)n1c(SCC(N)=O)nc2c(oc3ccccc32)c1=O
→ 10	103	100	15
O=C(CC(NC(c1ccccc1)c1ccccc1)C(=O)O)c1ccc(Cl)cc1 (stereo unspecified)
→ 72*	98	91	.
N#Cc1c(NC(=O)CSc2ccccn2)oc(-c2ccccc2)c1-c1ccccc1
→ 6	104	111	-1
CCCCN(CC)C(=O)c1cc2c(C)nn(-c3ccc(Cl)cc3)c2s1
→ -19	106	110	-12
COc1ccc(-c2nnc(SCC(=O)NC(Cc3ccccc3)C(=O)O)o2)cc1 (stereo unspecified)
→ -16	99	100	-4
CCn1c2ccccc2c2nnc(NCc3ccccc3)nc21
→ -7	103	102	-19
O=C(O)CCc1nnc2ccc(NCc3ccco3)nn12
→ 6	95	112	6
O=C(O)c1nn(CC(=O)N2CCc3ccccc32)c(=O)c2ccccc12
→ 7	96	99	-9
O=C(Cn1nnc(-c2cccc(F)c2)n1)N1CCCC1c1ccc2c(c1)OCCO2 (stereo unspecified)
→ -7	104	108	-8
COC(=O)[C@@H](NS(=O)(=O)c1ccc(Cl)c(Cl)c1)C(C)C
→ -26	.	.	-9
COC(=O)C1C(=O)C=C(N2CCOCC2)CC1(C)C (stereo unspecified)
→ -23	97	103	17
C=CCn1c(CCNC(=O)c2ccc(OC)cc2)n[nH]c1=S
→ -20	101	102	68
Cc1ccc2c(CSc3nncs3)cc(=O)oc2c1
→ -38	100	95	38
Cn1c(=O)c2ccccc2n(Cc2ccc(Cl)cc2)c1=O
→ -25	101	100	-13
OC(c1nc2ccccc2o1)(c1c[nH]c2ccccc12)C(F)(F)F (stereo unspecified)
→ -28	102	106	-15
CC1CCCN(CC(=O)Nc2ccc(C(=O)O)cc2)C1 (stereo unspecified)
→ 3	103	106	-10
CCOC(=O)C(C(=O)Nc1ccc(Br)cc1)C1CCCCC1 (stereo unspecified)
→ -25	102	104	11
Cc1ccc(S(=O)(=O)CCC(=O)Nc2ccc(C)c(C)c2)cc1
→ 4	100	99	-6
O=C(COC(=O)/C=C/c1ccco1)Nc1cccc(C(F)(F)F)c1
→ 7	101	105	16
O=C1c2ccccc2C(=O)C1C(c1ccco1)C1C(=O)c2ccccc2C1=O
→ -372	100	98	12
O=C(c1ccccc1)N1CCN(c2ccc(NCC3CCCO3)nn2)CC1 (stereo unspecified)
→ -22	104	91	-4
COC(=O)C1=CN(c2cccc(C(F)(F)F)c2)C=C(C(=O)OC)C1c1ccsc1
→ 15	99	101	32
O=C(CN1C(=O)C2CC=CCC2C1=O)OCC(=O)c1c[nH]c2ccccc12 (stereo unspecified)
→ -1	102	131	-5
CCNC(=O)CCCc1nc(-c2ccccc2)no1
→ 2	103	103	2
O=C(NC(O)C(=O)c1cccs1)c1cccnc1 (stereo unspecified)
→ -7	100	95	1
O=C(NCc1ccc2c(c1)CCO2)C1CCC1
→ -2	106	102	3
CC(C)c1ccc(C(=O)NCCCn2ccnc2)cc1
→ -26	.	.	-13
COc1cccc(CN(C(=S)NCc2ccccc2)c2ccc(F)c(Cl)c2)c1O
→ -22	104	110	.
O=C(O)c1ccc(S(=O)(=O)c2ccc3c(c2)C(=O)N(c2ccc(O)cc2)C3=O)cc1
→ -4	103	102	1
CC(Sc1nc(-c2ccccc2)cs1)C(=O)NC(N)=O (stereo unspecified)
→ 8	102	100	3
CC(C)(C)C(=O)NC(=S)Nc1ccccc1
→ -3	99	104	9
